Anaer choline gr = inhibitors of anaerobic choline-dependent gram-negative bacterial growth; Gram-negative bacterium anaerobic choline minimal medium, absorbance growth; hits give low values; many inactives read as strong as hits in the columns shown; calls only; 0.2% of 55,000 active; AID 1963822;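 active = growth z-score on choline under -2 at 7 or 20 h with little or no fall on glycerol, limits in tiers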;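 also: stock transfer was 300 nL into about 50 µL; the organism is E. coli; final concentration not given here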
Anaer choline gr early = recorded beside Anaer choline gr, whose call it bears; z-score; measured here: choline growth z-score, timepoint 1;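 score of optical density at 7 h as mean of two plates; lower means less growth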
Starred values were filed as active, the others as inactive; i = inactive; & = joins results of further samples. An excerpt. The share of hits here may be higher or lower than overall.

Molecule	Anaer choline gr	Anaer choline gr early
Cc1cc(C)n(-c2nc(CC(=O)Nc3nccs3)cs2)n1	i	0.5
CCOC(=O)c1cc(S(=O)(=O)N2CCCC2C(=O)NC2CCCCC2)cn1C (stereo not given)	i	0
COc1ccc(-c2cc(OC(=O)c3cccc(Cl)c3)c3c(C)oc(C)c3c(=O)c2)cc1OC	i	0.16
CN(C(=O)c1cccc(N2C(=O)C(C)(C)CS2(=O)=O)c1)C1CCS(=O)(=O)C1 (stereo not given)	i	0.31
O=C(CN1c2ccc(F)cc2-c2ccccc2S1(=O)=O)NC1CCCC1	i	0.77
O=C(c1ccc(N2CCCS2(=O)=O)cc1)N1CCN(c2ccc(F)cc2)CC1	i	-0.7
O=C(N1CCC(NS(=O)(=O)c2ccc(Cl)cc2)CC1)C1(c2ccccc2)CC1	i	0.09
CCc1onc(C)c1C1CCCN1Cc1cn[nH]c1-c1ccc(OC)cc1 (stereo not given)	i	-1.6
Cc1ccccc1NC(=O)CN1C(=O)CCS(=O)(=O)c2ccccc21	i	-0.16
CCCS(=O)(=O)c1nc2ccc(NS(=O)(=O)c3cc(F)cc(F)c3)cc2s1	i	0.2
Cn1cc(C(CNC(=O)Nc2cccc(Br)c2)c2cccnc2)c2ccccc21 (stereo not given)	i	1.9
Cc1[nH]nc(-c2ccc(S(=O)(=O)N3CCOCC3)o2)c1C	i	-0.17
COC(=O)c1cc(S(=O)(=O)N(C)CC(=O)NC2CC2)cn1C	i	-1.2
COCCNC(=O)c1cc(NS(=O)(=O)c2ccc(Br)cc2)ccc1N1CCNCC1	i	-0.48
C=CC1=C(C(=O)O)N2C(=O)[C@@H](NC(=O)/C(=N\OCC(=O)O)c3csc(N)n3)[C@H]2SC1	i	-1.6
O=C(CCCc1nc(-c2cccnc2)no1)Nc1ccc(C(=O)O)cc1	i	0.2
Cc1nc(-c2cc(S(=O)(=O)Nc3ccc(Br)cc3F)c(C)s2)sc1C	i	-0.15
COc1ccc(-c2cc(Oc3cccc(C(=O)NCc4ccc(OC)cc4OC)c3)ncn2)cc1	i	-0.15
COc1ccc(OC)c(CNS(=O)(=O)c2cc(-c3cc(C)no3)cs2)c1	i	0.04
O=C(NCC1CCCO1)N1CCc2c(sc3nc(-c4ccc(Cl)cc4)nn23)C1 (stereo not given)	i	-2
COc1ccccc1OCC(=O)Nc1cccc(N2CCn3c(nc4cc(Cl)ccc43)C2)c1	i	0.66
Cc1ccc(C)c(NC(=O)NCCCn2c(-c3ccc(F)cc3)nc3cccnc32)c1	i	0.4
COc1ccc(-c2cc(-c3nc4c5sc6nc(C)cc(C)c6c5ncn4n3)[nH]n2)cc1OC	i	-0.06
Cc1cccc(C(=O)Nc2ccc(N3CCCC3)c(NC(=O)Nc3ccccc3)c2)c1	i	0.53
Cc1cccc(-c2nc3nc(CN4CCCC4)cc(=O)n3[nH]2)c1	i	1.4

Brought forward from above: 4 entries, then new ones.
Molecule	Anaer choline gr	Anaer choline gr early
Cc1ccc(C)c(NC(=O)NCCCn2c(-c3ccc(F)cc3)nc3cccnc32)c1	i	0.4
COc1ccc(-c2cc(-c3nc4c5sc6nc(C)cc(C)c6c5ncn4n3)[nH]n2)cc1OC	i	-0.06
Cc1cccc(C(=O)Nc2ccc(N3CCCC3)c(NC(=O)Nc3ccccc3)c2)c1	i	0.53
Cc1cccc(-c2nc3nc(CN4CCCC4)cc(=O)n3[nH]2)c1	i	1.4
CC(C)NC(=O)CCCCn1c(=O)c2ccccc2n(CC(=O)NCCc2ccccc2)c1=O	i	2.2
Cc1oc(-c2ccccc2)nc1CSc1nc2ccccc2n2c(C(C)C)nnc12	i	1.1
CCOC(=O)c1c(S(=O)(=O)N2CCC(C(=O)N3CCN(c4ccccc4)CC3)CC2)c(C)n(C)c1C	i	-0.79
CCN(CC)c1cc(C)nc(Nc2ccc(NS(=O)(=O)c3ccc(Br)cc3)cc2)n1	i	-0.14
Cc1ccc(C(=O)Nc2cccc(C(=O)N3CCCC(C(=O)NCC4CCCCC4)C3)c2)cc1 (stereo not given)	i	0.26
CC(C)n1nnc2cc(C(=O)O)ccc21	i	0.39
CC(C)C(=O)OCC(=O)[C@@]12O[C@H](C3CCCCC3)O[C@@H]1C[C@H]1[C@@H]3CCC4=CC(=O)C=C[C@]4(C)[C@H]3[C@@H](O)C[C@@]12C	i	0.51
COc1cccc(NC(=O)N2CCC3(CC2)Nc2cc(OC)ccc2-n2cccc23)c1	i	-0.09
CNC(=O)c1nc(C(C)(C)NC(=O)c2ccoc2)nc2c1OCO2	i	0.23
COc1ccc(C)cc1NC(=O)CN(C)S(=O)(=O)c1cc2c(cc1C)NC(=O)CO2	i	0.68
Cc1ccccc1C(=O)Nc1cnc2ccccn2c1=O	i	-1.1
Cn1c(N2CCN(C(=O)C3CCCCC3)CC2)cc(=O)n(C)c1=O	i	-0.33
Cc1ccc(C2NC(C(=O)O)CS2)cc1 (stereo not given)	i	0.26
CCN1CCN(c2cc(C(=O)O)c3cc(NS(=O)(=O)c4ccc(F)cc4)ccc3n2)CC1	i	0.13
O=C(O)C1CN(CCCP(=O)(O)O)CCN1 (stereo not given)	i	-0.41
O=c1c2sc3ccccc3c2n(Cc2cccc(Cl)c2)c(=O)n1Cc1ccccn1	i	0.74
CC(=O)Nc1ccc(S(=O)(=O)N2CCOc3ccc(C(=O)NCc4ccc(C)cc4)cc3C2)cc1	i	0
CCCNC1CCc2nc(N)sc2C1 (stereo not given)	i	0.68&0.68
CCC(C)C(=O)OC1CCC=C2C=CC(C)C(CCC3CC(O)CC(=O)O3)[C@H]21 (stereo not given in full)	i	0.46
COC1=C(OC)C(=O)C(CCCCCCCCCCO)=C(C)C1=O	i	0.46&-0.22&-0.15
COc1cccc(C2c3c(n[nH]c3C)C(=O)N2c2ccc(Br)cc2)c1 (stereo not given)	i	1.2
CC1(C(=O)NC2CCCC2)Cn2c(c(-n3cccc3)c3ccccc32)C(=O)N1Cc1ccccn1 (stereo not given)	i	0.81
CCC(=O)N1CCCC1c1nc2ccccc2n1CCOc1ccccc1OC (stereo not given)	i	-1.4
CCN(CC)C(C)CN1c2ccccc2Sc2ccccc21 (stereo not given)	i	0.25&-0.01
CCC1CCCCN1C(=O)C1CCN(S(=O)(=O)c2c(C)noc2/C=C\c2ccc(OC)cc2)CC1 (stereo not given)	i	0.23
COc1ccc(CNC(=O)C2(C)Cn3nc(C)cc3C(=O)N2c2ccc3c(c2)OCCO3)cc1 (stereo not given)	i	-0.32
COc1ccc(-c2nc(-c3ccc4nncn4c3)no2)c(OC)c1	i	1.2
C=C[C@@]1(C)CC(OC(=O)CSC2C[C@H]3CC[C@@H](C2)N3C)[C@]2(C)C(C)CC[C@]3(CCC(=O)[C@H]32)C(C)C1O (stereo not given in full)	i	-2.8
O=S(=O)(NC1CCCc2ccccc21)c1ccc(-c2cnc(C3CCC3)o2)s1 (stereo not given)	i	-0.08
Cc1ccccc1OCc1nc2c3ccccc3ncn2n1	i	-0.32
CC(=O)N1CCCc2cc(S(=O)(=O)Nc3c(C)n(C)n(-c4ccccc4)c3=O)ccc21	i	1
Cc1oc(-c2ccc(Cl)cc2)nc1CSCC(=O)NC1CCN(Cc2ccccc2)CC1	i	-0.82
Cc1ccc(-c2noc(CSc3nc4cc5c(cc4c(=O)n3CC3CCCO3)OCO5)n2)cc1 (stereo not given)	i	0.49
NC(Cc1cc(I)c(Oc2ccc(O)c(I)c2)c(I)c1)C(=O)O (stereo not given)	i	0.44
COc1ccc(OC)c(S(=O)(=O)Cc2nc(-c3ccc(OC)c(OC)c3)no2)c1	i	0.18
Cc1c(C(N)=O)cc([N+](=O)[O-])cc1[N+](=O)[O-]	i	-0.33
Cc1ccc(S(=O)(=O)NCc2cccn2Cc2cccc(F)c2)cc1C	i	1.5
COc1cccc(N2CCN(C(=O)c3cc(C4CC4)[nH]n3)CC2)c1	i	-0.43
COc1ccc(NC(=O)c2cc3c(=O)oc4ccccc4c3n2C)cc1Cl	i	-0.4
NC(=O)CNC(=O)c1nc(-c2ccsc2)nc2c1OCCO2	i	0.03
CCCc1cc(C2CCCN2Cc2cn[nH]c2-c2ccc(C)c(C)c2)no1 (stereo not given)	i	1.3
CCCn1c(=O)[nH]c(=O)c2[nH]cnc21	i	0.65
COc1cccc(NC(=O)CN2C(=O)c3cccnc3Sc3ccccc32)c1	i	-0.49
CC(C)(C)NC(=O)NC1CCN(C(=O)C2CC2)C1 (stereo not given)	i	-0.15
Fc1ccc(-c2ccc(SCc3nc(-c4cccc(Br)c4)no3)nn2)cc1	i	1.4
Cc1nc(Nc2ccc(NS(=O)(=O)c3ccc4c(c3)OCCO4)cc2)cc(N(C)C)n1	i	-0.45
Cc1cccc(C)c1OCC(N)C(C)C (stereo not given)	i	-0.58
CN1CCCN(c2ccc(NC(=O)C3CCCC3)c(C(=O)O)c2)CC1	i	1.5
CN1CCN(C2=Cc3ccccc3Oc3ccc(Cl)cc32)CC1	i	-1.4
O=c1n(Cc2ccccc2F)nc2c(S(=O)(=O)N3CCOCC3)cccn12	i	-0.1

Of the compounds above, these have a furan ring, fused or not:
Molecule	Anaer choline gr	Anaer choline gr early
COc1ccc(-c2cc(OC(=O)c3cccc(Cl)c3)c3c(C)oc(C)c3c(=O)c2)cc1OC	i	0.16
Cc1[nH]nc(-c2ccc(S(=O)(=O)N3CCOCC3)o2)c1C	i	-0.17
CNC(=O)c1nc(C(C)(C)NC(=O)c2ccoc2)nc2c1OCO2	i	0.23

The list continues.
Molecule	Anaer choline gr	Anaer choline gr early
COc1ccc(S(=O)(=O)N2CCc3cc4ccc(C)cc4nc32)cc1OC	i	-1
CCc1cc(C2CCCN2Cc2cn[nH]c2-c2cccs2)on1 (stereo not given)	i	0.34
CC(C)CN1CCN(Cc2nc(-c3ccc(N4CCOCC4)nc3)no2)CC1	i	-1.9
Cc1ccc(C)c(NC(=O)c2ccc3c(c2)NC(=O)CO3)c1	i	1.2
Cc1nc(Nc2ccc(F)cc2F)c2c(C)noc2n1	i	0.1
CCOC(=O)c1[nH]c(C)c(CN(Cc2ccc(C)cc2)C(=O)C2CC2)c1C	i	0.79
NC/C=C\C(=O)O	i	-0.88
Cc1nc(Nc2ccc(NC(=O)Nc3ccc(Cl)cc3)cc2)cc(N(C)C)n1	i	1.8
CCc1cc(C(Nc2cc(C)ccn2)c2ccsc2)c(NC(=O)c2ccccc2)s1 (stereo not given)	i	-0.78
CCCCNC(=O)Cc1c(C)nc2nc(C3CCCCC3)nn2c1C	i	-1.5
CCN1CCCn2nc(C3CCN(C(=O)c4ccc(Br)o4)CC3)cc2C1=O	i	0.19
CN(CCc1noc(COc2ccccc2)n1)S(C)(=O)=O	i	-2.2
Cc1cc(NC(=O)CSc2nn3c(=O)c(C)nnc3s2)no1	i	0.57
CCCCN(C)C(=O)CS(=O)Cc1cnn(-c2ccccc2)c1-n1cccc1 (stereo not given)	i	-0.77
CCc1ccc(NC(=O)N2CCN(C(=O)c3nsc4ccccc34)CC2)cc1	i	0.04
O=c1c2ccccc2n2c(=O)n(Cc3cccc(Cl)c3)nc2n1Cc1ccccc1	i	0.39
Cc1cc(Sc2ccccc2NC(=O)c2ccccc2Br)n2ncnc2n1	i	0.45
Cc1cccc(NC(=O)C2CCN(S(=O)(=O)c3cc(-c4noc(C5CCC5)n4)sc3C)CC2)n1	i	0.5
CC(C)c1nnc(-c2ccc(S(=O)(=O)N3CCN(C4CCCCC4)CC3)o2)o1	i	-1
COc1ccc(Nc2c(-c3ccc(C)cc3)c(=O)c2=O)cc1OC	i	0.04
CCn1c(CN2CCCC2)nc2ccccc21	i	-0.46
CCOC(=O)c1nc(Nc2ccc(NC(C)=O)cc2)c2c(C)noc2n1	i	-0.38
Cc1ccc(-c2ccc(=O)n(C(C)C(=O)Nc3ccccc3)n2)cc1S(=O)(=O)N1CCCCC1 (stereo not given)	i	0.11
Cc1nnc(-c2cccn2CC(=O)NCc2ccccc2Cl)o1	i	1.6
CC(C)[C@H](CO)Nc1nc(Nc2cccc(Cl)c2)c2ncn(C(C)C)c2n1	i	0.47
O=C(NCc1ccc(F)cc1)c1ccc(Oc2ccnc(-c3ccc(F)cc3)n2)cc1	i	0.11
Cc1ccc(-c2cc(C(=O)N3CCc4ccccc4C3)c(C)[nH]2)cc1C	i	-0.64
O=C(Cc1ccc(F)cc1)N1CC(OCc2ccc(F)cc2Cl)C1	i	-0.09
Cc1cccnc1-n1c(C)c(C)c2c1ncn1nc(CSc3nc4ccccc4o3)nc21	i	-0.09
COc1ccc(S(=O)(=O)N2CCC3(CC2)Nc2cc(OC)ccc2-n2cccc23)cc1	i	1.1
Cc1ccc(NC(=O)c2cnn(-c3ccc(C)c(Cl)c3)c2C2CCNCC2)cc1Cl	i	-0.4
COc1ccc(Cn2ccc3nc(C)c(C(=O)Nc4cc(OC)cc(OC)c4)cc3c2=O)cc1	i	1.2
CC1(C)CC(=O)C2=C(C1)Nc1ccccc1N(S(C)(=O)=O)C2c1ccccc1 (stereo not given)	i	0.89
C=CCn1c(=O)c(=O)n(Cc2ccc(C(=O)NCCc3ccc(C)cc3)cc2)c2ccccc21	i	-0.28
O=S(=O)(Nc1ccc2nncn2n1)c1ccc(Br)s1	i	0.3

3 entries already listed, sorted by length of the SMILES, low to high:
Molecule	Anaer choline gr	Anaer choline gr early
O=S(=O)(Nc1ccc2nncn2n1)c1ccc(Br)s1	i	0.3
Cc1cccnc1-n1c(C)c(C)c2c1ncn1nc(CSc3nc4ccccc4o3)nc21	i	-0.09
COc1ccc(S(=O)(=O)N2CCC3(CC2)Nc2cc(OC)ccc2-n2cccc23)cc1	i	1.1
